# Screening data from PubChem BioAssay.
# TRPML1 ag – qHTS for Agonists of the Human Mucolipin Transient Receptor Potential 1 (TRPML1). Mucolipin-1 (Homo sapiens), Q9GZU1. TRPML1-expressing cells, Ca2+ dye fluorescence, FDSS; host cell line not named in the record; reference of the full effect not given here. activation, % (test concentration not listed). hit rate 0.12% among 410,000. AID 624414, 2012; in the data active = activation above about 50%; inconclusive = about 30% to 50%; inactive = below about 30%; further: 0% is about no effect; the text of the record puts the active cut at 80%
#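 Tet-induced TRPML1-DL cells, 1,500 per well, cultured overnight, were loaded with a no-wash Ca2+ dye for 45–90 min. Calcium fluorescence was recorded on the FDSS for 110 s after compound addition, before the EC80 agonist (4 uM 54-4) was added.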
# PINK1 expr mod – A Quantitative High throughput Screen to Identify Chemical Modulators of PINK1 Expression. PINK1 immunofluorescence, high-content cytometry, 24 h. Potency, µM (top dose mostly 76.6 µM), inactives show top-dose activation (PINK1 increase), hits mostly activators. hit rate 0.2% among 410,000; active = well fitted activation curve with a large enough effect; inconclusive = small, poorly fitted or top-dose-only effect; inactive = flat fitted curve, though single readings scatter; cell line not stated here;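 further: potency means the concentration at half of the fitted maximal effect; % of control where 0% means no effect; nearly all actives have a fitted effect of over 65% in size; a mitochondrial uncoupler was the plate control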
#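 PINK1 protein level read as immunofluorescence by microplate cytometer in a fixed, stained stable cell line after 24 h exposure to five compound concentrations, with CCCP as control.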
# ClpP mod – qHTS Assay for Activators of ClpP; hit rate 1.9% among 340,000; ATP-dependent Clp protease proteolytic subunit (Bacillus subtilis (strain 168)), P80244; purified B. subtilis ClpP, FRET peptide cleavage, 20 min; Potency, µM (series often up to 57.5 µM), for the others: at the highest dose activity change, negative = active; AID 651965, 2013; active = well fitted falling curve with a large enough effect; inconclusive = small, poorly fitted or top-dose-only effect; inactive = no such curve, though single readings can be large or run the other way; further: potency means the concentration at half of the fitted maximal effect; the source files actives as falling curves though it sought activators and does not explain the sign; nearly all actives have a fitted effect of over 65% in size; many hits overshoot -100%
# Target sequence (P80244 whole entry, looked up): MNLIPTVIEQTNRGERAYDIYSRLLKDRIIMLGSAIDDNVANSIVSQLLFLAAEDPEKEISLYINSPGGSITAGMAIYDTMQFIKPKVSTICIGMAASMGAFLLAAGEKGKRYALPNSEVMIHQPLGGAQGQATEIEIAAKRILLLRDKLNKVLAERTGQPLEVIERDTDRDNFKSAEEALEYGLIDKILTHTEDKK
#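 FRET quenching reversal measured ClpP activation: 10 microg/mL B. subtilis ClpP at pH 8 with the FRET-FV decapeptide, read at 430 nm after 320 nm excitation. The 20-min minus 0-min signal was scaled between DMSO/no-enzyme wells and ADEP (5.8 microM final).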
# TRPML1 blocker – qHTS for Inhibitors of the Human Mucolipin Transient Receptor Potential 1 (TRPML1) | hit rate 0.02% among 390,000 | Mucolipin-1 (Homo sapiens), Q9GZU1 | activity change, negative = inhibition, % (concentration not given with the values) | TRPML1-inducible cells, Ca2+ dye fluorescence, FDSS; hits give low values; inhibition of EC80 agonist-evoked calcium signal; in the data active means activity change below about -50%; inconclusive means about -30% to -50%; inactive means above about -30%;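 further: stimulus is agonist 54-4 at its EC80 concentration; on the % scale 0 is the no-effect control and ±100 the full control effect; compound concentration not given in the record; the text of the record puts the active cut at -80%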
#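 TRPML1-DL cells, Tet-induced overnight (~16 h, 37 °C) at 1,500 cells/well, were loaded with Ca8 no-wash dye plus quencher for 45-90 min at room temperature. Compounds were pinned during FDSS kinetic reading; agonist 54-4 at EC80 (4 uM final) then added.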
# Sfp PPTase inh – qHTS Assay for Inhibitors of Bacillus subtilis Sfp phosphopantetheinyl transferase (PPTase). Biochemical Sfp PPTase activity, qHTS. Potency, µM, for inactives: max response, negative = inhibition, most hits filed as inhibitors. hit rate 3.5% among 310,000; active means well fitted inhibition curve with a large enough effect; inconclusive means small, poorly fitted or top-dose-only effect, or another doubt; inactive means no such curve, though single readings can be large or run the other way;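 further: the enzyme is Sfp with the accession as filed and its product quenches rhodamine fluorescence; potency means the concentration at half of the fitted maximal effect; 0% = enzyme reaction without inhibitor and -100% = no enzyme wells; top concentration of the series not given in the record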
#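 Reaction rates are the 30-min fluorescence difference (ex 525, em 598 nm) in wells containing 15 nM Sfp, 5 uM rhodamine-CoA and 12.5 uM BHQ-2-YbbR at pH 7.6 with 10 mM MgCl2.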
# Menin-MLL FL inh – qHTS Assay for Inhibitors Targeting the Menin-MLL Interaction in MLL Related Leukemias: Competition With Fluorescein Labeled MLL-derived Peptide; FP activity change, % at 61.4 µM; Fluorescence polarization, fluorescein-MLL peptide displacement from menin; 290,000 tested, under 10 active; inconclusive = falling polarisation curve, or a change in total fluorescence; inactive = total fluorescence flat and polarisation flat or rising; no compound was filed as active; the % refers to the polarisation; negative = inhibition;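 further: % of control where 0% means no effect; inhibitors lower the polarisation; unlabelled MLL peptide was the positive control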
# TRPV1 potentiator – HTS Assay for Compounds that Act as Potentiators of the Vanilloid Receptor 1; TRPV1-expressing cells, Fluo-8 calcium influx, capsaicin EC20 potentiation; host cell line not named in the record; control for the full effect not named in the record; potentiation, % at 8.33 µM; hit rate 0.02% among 320,000; AID 540277, 2011; active means potentiation above 80%; inconclusive means 30% to 80%; inactive means below 30%; further: 0% is about no effect
# Target sequence (Q8NER1 whole entry, looked up): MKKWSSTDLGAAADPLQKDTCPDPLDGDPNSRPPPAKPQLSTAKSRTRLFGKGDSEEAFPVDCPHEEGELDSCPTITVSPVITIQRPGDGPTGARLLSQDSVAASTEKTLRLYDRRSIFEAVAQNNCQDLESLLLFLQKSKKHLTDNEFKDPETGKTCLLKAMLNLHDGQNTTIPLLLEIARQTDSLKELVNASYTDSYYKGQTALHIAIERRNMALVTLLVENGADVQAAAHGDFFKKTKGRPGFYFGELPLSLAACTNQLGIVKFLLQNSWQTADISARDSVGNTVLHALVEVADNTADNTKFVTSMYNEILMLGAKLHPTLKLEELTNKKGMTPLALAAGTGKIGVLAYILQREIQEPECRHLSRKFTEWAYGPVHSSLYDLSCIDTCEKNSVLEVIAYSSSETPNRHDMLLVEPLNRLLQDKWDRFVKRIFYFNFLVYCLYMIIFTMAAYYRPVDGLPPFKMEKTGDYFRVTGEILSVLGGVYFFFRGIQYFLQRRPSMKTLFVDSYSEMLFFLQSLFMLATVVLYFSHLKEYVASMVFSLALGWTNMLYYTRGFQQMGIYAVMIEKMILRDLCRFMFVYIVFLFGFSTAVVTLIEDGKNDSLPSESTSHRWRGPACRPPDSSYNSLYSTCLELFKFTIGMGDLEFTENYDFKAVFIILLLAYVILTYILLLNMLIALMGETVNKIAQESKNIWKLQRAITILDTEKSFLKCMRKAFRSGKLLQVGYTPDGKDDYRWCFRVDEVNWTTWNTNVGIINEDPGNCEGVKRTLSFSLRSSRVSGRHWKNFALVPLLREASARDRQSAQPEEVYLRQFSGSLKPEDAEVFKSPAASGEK
#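 TRPV1-expressing cells were cultured overnight at 35.5C and loaded with Fluo-8 calcium dye for 40 to 90 min at room temperature. After a 10 s baseline, compound was added and calcium influx was read kinetically for 3 min (ex 480/em 520 nm).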
# Numbers without * were called inactive; u = inconclusive; x = not tested or not shown; & = joins results of further samples; [ ] = dose if it differs, or a comment. An unsorted share of the library. Share with any hit: about 4.4%.
SMILES,TRPML1 ag,PINK1 expr mod,ClpP mod,TRPML1 blocker,Sfp PPTase inh,Menin-MLL FL inh,TRPV1 potentiator
Cc1cc(=O)n2[nH]c(N3C(=O)CCC3=O)nc2n1,-0.4,-0.8%,1.1%,3,1%,-0.9,0
COc1cccc(N2C(=NC(=O)C3CCCCC3)SC3CS(=O)(=O)CC32)c1 (configuration not stated),0.9,0.1%,0.5%,u,6%,-3.9,-4
COC(=O)Nc1ccc(S(=O)(=O)n2cnc3ccccc32)cc1,0.5,17%[38.3 µM],-2.0%,6,14%,-1.1,8
O=C(O)c1cccc2c3c([nH]c12)CCCC3,0.1,0.6%,-1.1%,-7,15%,0.3,3
COc1ccc(NC(=O)CCCN2C(=O)C3C4C=CC(C4)C3C2=O)c(OC)c1 (configuration not stated),0.6,1.3%,2.5%,20,8%,2.0,-9
CCn1c(=O)n(CC(=O)Nc2cc(OC)c(OC)c(OC)c2)c(=O)c2ccccc21,1.0,-3.5%[38.3 µM],-21%,-6,-3%,-1.5,24
COc1ccc(CN2CCN(c3ccc(F)cc3)CC2)c(OC)c1OC,0.8,1.1%,1.3%,8,-1%,-3.6,4
O=S(=O)(Nc1cccc(-n2cnnn2)c1)c1cc(Br)ccc1Br,0.3,0.8%,-0.7%,5,7%,-0.7,5
CN(C)C(=O)C[n+]1ccc(C(N)=O)cc1,-0.4,4.2%,-0.6%,-14,15%,0.5,-8
COc1ccc(NC(=O)CN2CC(C)OC(C)C2)cc1Cl (configuration not stated),-0.6,2.0%,x,-4,19%,4.8,24
CCOC(=O)C1CCN(S(=O)(=O)c2ccc3oc(=O)ccc3c2)CC1,-0.5,0.1%,x,-2,5%,x,-7
O=C1NC(=S)N/C1=C/c1cc([N+](=O)[O-])ccc1N1CCOCC1,-0.5,-0.7%,x,-13,-5%,0.7,-1
CCc1ccccc1NC(=O)c1nnn(CC(=O)Nc2cccc(C)c2)c1N,-0.9,7.4%,19%,0,9%,-2.1,x
Brc1ccc2nc(N3CCN(c4ccccc4)CC3)sc2c1,-0.1,1.4%,x,-9,5%,-0.4,-5
COc1ccccc1C(=O)N/C(=C\c1ccc(Br)cc1)C(=O)NCCCO,0.1,0.5%,1.3%,-5,9%,-1.1,-8
Cc1oc2ccc(O)cc2c1C(=O)c1ccccc1,-0.4,0.7%,x,4,11%,-0.6,20
C=CCOC(=O)C1=C(C)N=C2SCCC(=O)N2C1c1ccc(OC(=O)c2ccco2)cc1 (configuration not stated),2.0,x,-3.5%,-6,3%,-3.1,1
CCc1ccccc1NS(=O)(=O)c1cc(Br)cc2c1N(C(=O)C1CC1)CC2,-0.5,6.0%,-1.7%,-9,x,x,x
NC(=O)NC(Cc1ccccc1)C(=O)N1CCN(S(=O)(=O)c2ccc(Cl)cc2)CC1 (configuration not stated),0.5,-0.3%,0.9%,0,x,x,u
CCC1(C)Cc2ccccc2-c2nc3n(c(=O)c21)CC(C(=O)O)S3 (configuration not stated),-0.2,0.0%,25µM*,-12,16%,0.2,6

# Compound profiles (already shown). Order of screens: TRPML1 ag | PINK1 expr mod | ClpP mod | TRPML1 blocker | Sfp PPTase inh | Menin-MLL FL inh | TRPV1 potentiator
# O=C1NC(=S)N/C1=C/c1cc([N+](=O)[O-])ccc1N1CCOCC1 is listed as -0.5 | -0.7% | x | -13 | -5% | 0.7 | -1
# COc1ccc(CN2CCN(c3ccc(F)cc3)CC2)c(OC)c1OC is listed as 0.8 | 1.1% | 1.3% | 8 | -1% | -3.6 | 4
# NC(=O)NC(Cc1ccccc1)C(=O)N1CCN(S(=O)(=O)c2ccc(Cl)cc2)CC1 (configuration not stated) is listed as 0.5 | -0.3% | 0.9% | 0 | x | x | u
# COc1ccc(NC(=O)CN2CC(C)OC(C)C2)cc1Cl (configuration not stated) is listed as -0.6 | 2.0% | x | -4 | 19% | 4.8 | 24

# New compounds follow.
SMILES,TRPML1 ag,PINK1 expr mod,ClpP mod,TRPML1 blocker,Sfp PPTase inh,Menin-MLL FL inh,TRPV1 potentiator
C[C@H](CO)N1C[C@H](C)[C@@H](CN(C)S(=O)(=O)c2ccc(Oc3ccccc3)cc2)OCc2cnnn2CCCC1=O,-0.6,0.5%,0.1%,11,x,x,x
CC1CCN(CC(=O)Nc2cccc([N+](=O)[O-])c2)CC1,-0.1,-1.2%[38.3 µM],0.6%,4,6%,-0.5,-10
CC(=O)N(C1=C(N)C(=O)c2ccccc2C1=O)c1ccccc1,0.7,0.0%,0.9%,14,13%,0.8,-1
CC(=O)Nc1ccc2c(c1)C(=O)c1ccc(Cl)cc1-2,0.0,1.3%,1.6%,8,x,x,x
COC(=O)c1cc(C(=O)Nc2ccc(C)cn2)cc([N+](=O)[O-])c1,-0.7,0.9%[38.3 µM],-0.6%,-4,12%,10,5
Cc1cc(Cl)ccc1OC(C)C(=O)Nc1ccc(S(=O)(=O)N2CCOCC2)cc1 (configuration not stated),1.4,0.5%,0.6%,-8,x,x,x
COc1ccc(CCNC(=O)CCc2nnc(Cc3ccc4c(c3)OCO4)o2)c(OC)c1,1.5,-3.0%,-2.3%,-6,-3%,0.3,6
COCCCNC(=O)c1cn(CC(C)C)c(=O)c2c1c1ccccc1n2C,0.4&2.2,-1.8%&-1.4%,32µM*,u,22%,0.8,-7
Cc1ccc(O)c(CP(=O)(c2ccccc2)c2ccccc2)c1,0.1,1.2%,-1.7%,2,4%,1.2,-14
COc1ccc(Nc2c([N+](=O)[O-])ccc3c2=NC2(CCCCC2)N=3)cc1,5.3,-0.4%,x,7,-3%,0.0,-2
Cc1cnc(CNC(=O)C2CCC(=O)N(CCc3ccc(Cl)cc3)C2)cn1 (configuration not stated),-1.1,-0.6%,0.1%,2,7%,-3.0,15
Cc1cccn2c(=O)c3cc(C(=O)NCc4cccnc4)c(=N)n(C)c3nc12,x,x,x,x,11%,-1.5,-4
CC(C)OCCCN1CN(S(=O)(=O)c2cccc(Cl)c2)c2nc3ccccc3nc21,1.1,2.2%,-15%,13,-7%,5.0,-6
CCC(=O)c1ccc(OCC(O)CNC(C)c2ccccc2)cc1 (configuration not stated),1.2,-2.1%,-2.1%,-11,9%,1.1,5
O=C(NCc1ccco1)NCC(F)(F)F,0.4,-0.5%,2.9%,22,10%,1.5,u
Cc1cccc(OCCNc2ccc([N+](=O)[O-])cn2)c1,-0.9,2.6%,-1.8%,12,10%,-1.4,0
COc1ccc(C)cc1NC(=O)C1CCCN(S(=O)(=O)c2ccc3c(c2)CCCN3C(C)=O)C1 (configuration not stated),-0.7&0.8,0.8%&2.2%,1.6%&1.1%,6&-5,10%,-3.9,-1
O=C(NNC(=O)c1cccc2ccccc12)c1cccc(F)c1,1.4,3.1%,x,-8,x,x,x
CC(=O)c1cccc(N(C(=O)CNC(=O)c2ccco2)C(C(=O)NCC2CCCO2)c2ccccc2)c1 (configuration not stated),-0.1,2.1%,1.6%,-11,-1%,4.7,3
Cc1cc(C)n2nc(C(=O)OCC(=O)NC(=O)c3ccccc3)nc2n1,-0.6,0.5%,x,-3,x,x,-2
Cc1c(N2C(=O)c3ccc4c5c(ccc(c35)C2=O)CC4)c(=O)n(-c2ccccc2)n1C,-0.7,0.0%,u,-8,-4%,u,3
Nn1c(SCC(=O)N2CCOCC2)nnc1-c1cccnc1,0.0,0.4%,3.2%,15,x,x,1
O=C(CSc1ncn[nH]1)Nc1nc(-c2ccccc2)ns1,-0.1,4.2%[38.3 µM],-3.8%,-8,16%,1.0,4
CCC(=O)c1ccc(OCC(O)CN2CC(C)OC(C)C2)cc1 (configuration not stated),0.9,0.3%,0.2%,8,-11%,-0.8,-4
COc1ccc(NC(=O)N(Cc2cc3cc(C)ccc3[nH]c2=O)CC2CCCO2)cc1 (configuration not stated),1.1,2.8%,-18%,-10,11%,0.5,0
CC1(NC(=O)NCc2ccccc2)CCS(=O)(=O)C1 (configuration not stated),0.2,-0.4%,-0.6%,29,14%,2.5,-4
COC(C[C@H](O)[C@H](C)[C@@H](O)COCc1ccccc1)OC,-0.1,0.4%,-2.5%,-4,14%,-7.6,28
O=C1CNc2cc(Cl)ccc2N1,0.4,-0.6%,-2.4%,5,x,x,x
CCn1ncc(C2=NOC(C(=O)Nc3cnn(C45CC6CC(CC(C6)C4)C5)c3)C2)c1C (configuration not stated),1.0,-0.4%[38.3 µM],1.2%,20,14%,-1.0,-24
NC(=O)COC(=O)CN1C(=O)C2CCCCC2C1=O (configuration not stated),1.0,1.1%,-2.0%,4,13%,-1.1,6
Cc1nc2c(C(=O)NCCc3ccccc3)cnn2c(C)c1Cc1c(F)cccc1Cl,1.0,-1.5%,u,14,x,x,x
COc1ccc(/C(N)=N/OC(=O)CSc2ccccc2)cc1OC,3.6,-1.5%,0.3%,-10,-17%,4.2,4
Cc1cc(C)cc(OCC(=O)NC(Cc2c[nH]c3ccccc23)C(=O)O)c1 (configuration not stated),1.9,1.1%,-5.1%,10,x,x,x
O=C(c1cc(-c2ccc(Cl)cc2)n[nH]1)N1CCc2ccccc2C1,-0.9,4.2%,0.8%,-3,11%,0.4,-4
CC1CCc2nc3ccccc3c(C(=O)OCC(=O)N(C)C3CCS(=O)(=O)C3)c2C1 (configuration not stated),0.9,3.9%,x,9,23%,-1.1,14
Cc1ccc(C(=O)CSc2nc3ccccc3o2)cc1,4.7,x,-8.1%,25,-4%,1.5,-13
Cc1ccc(C)c(N2C(=O)N(Cc3c(F)cccc3Cl)c3ccccc3S2(=O)=O)c1,0.2,-0.2%,2.2%,-3,x,x,x
CCN(Cc1ccccc1)C(=O)C1CCN(c2ncnc3c2nc2n3CCCCC2)CC1,1.7&0.6,4.8%&18%,-1.9%&-0.7%,-14&1,4%,-0.3,5
O=C(Cc1ccccc1)NCC(=O)OCC(=O)c1cccc([N+](=O)[O-])c1,0.4,0.5%,-1.1%,-5,12%,2.2,5
